AF4-AF9 inh – inhibitors of human MLL-AF4/AF9 interaction; 0.47% of 350,000 active; inhibition, % at 10 µM; AID 651704; AlphaScreen, biotin-AF4 peptide binding to FLAG-AF9; P42568;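 active means every replicate reaching a set inhibition limit, whatever the replicate mean, cut at about 25% in these data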;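 further: 0% = plate neutral control median and 100% = total signal loss; the record names both 10 and 1 µM as test concentration; the first replicate is given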
Target sequence (P42568 whole entry, looked up): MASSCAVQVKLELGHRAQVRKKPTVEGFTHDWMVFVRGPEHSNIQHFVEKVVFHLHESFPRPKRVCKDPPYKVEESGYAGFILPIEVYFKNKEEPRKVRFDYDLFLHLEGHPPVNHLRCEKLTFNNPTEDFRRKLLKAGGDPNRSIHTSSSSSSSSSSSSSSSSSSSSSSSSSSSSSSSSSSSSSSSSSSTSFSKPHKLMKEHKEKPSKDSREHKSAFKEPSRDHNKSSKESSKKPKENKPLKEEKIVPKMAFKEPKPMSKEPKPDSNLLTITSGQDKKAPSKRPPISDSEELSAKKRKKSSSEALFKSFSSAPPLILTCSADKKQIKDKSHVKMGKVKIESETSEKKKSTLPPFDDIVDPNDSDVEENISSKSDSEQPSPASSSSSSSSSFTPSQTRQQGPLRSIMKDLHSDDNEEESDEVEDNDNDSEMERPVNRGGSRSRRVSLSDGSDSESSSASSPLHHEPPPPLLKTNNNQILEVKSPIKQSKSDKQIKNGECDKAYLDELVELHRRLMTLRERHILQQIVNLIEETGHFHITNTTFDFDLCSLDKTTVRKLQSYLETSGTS
E coli growth – inhibitors of Escherichia coli growth. OD600 absorbance (test concentration not listed). 0.21% of 330,000 active. AID 1053175. OD600, 23 h; hits give low values;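 active means OD600 absorbance below the run mean of sample wells minus 3.6 SD, in any replicate, cut at about 0.56 in these data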;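 further: stock transfer was 300 nL into about 60 µL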
FGF22 binding – shifts melting point of recombinant human FGF22; Q9HCT0; recombinant FGF22 thermal shift, SYPRO orange fluorescence; percent of sucrose octasulfate shift, DMSO zero; calls only at 9.99 µM; 1.5% of 340,000 active; AID 651658;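 active means melting point raised past a set limit in the mean and every replicate; three in four hits are not shown here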
Target sequence (Q9HCT0 whole entry, looked up): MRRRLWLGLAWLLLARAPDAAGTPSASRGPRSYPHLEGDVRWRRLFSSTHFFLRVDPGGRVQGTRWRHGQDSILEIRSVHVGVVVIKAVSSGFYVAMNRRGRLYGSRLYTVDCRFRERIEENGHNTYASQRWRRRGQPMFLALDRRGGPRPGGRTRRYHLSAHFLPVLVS
Ecoli rRNA inh – selective bacterial rRNA inhibition in E. coli; E. coli WT GFP vs humanized-ribosome RFP mutants, fluorescence, 24 h; hits give low values; DMSO median 0, no signal -100; GFP signal change (wild-type ribosome), % (test concentration not listed); 1.6% of 350,000 active;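 active means significant combined selectivity score with lowered wild-type GFP, culture density cut under 30%, mutant RFP and density less affected; inactive means any of these conditions unmet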; further: one replicate is shown; some compounds called inactive have numbers as strong as hits
UCH37 DUB inh – human UCH37 deubiquitinating enzyme inhibition. purified proteasome/UCH37, Ub-AMC cleavage fluorescence. inhibition, % (no concentration beside the values). 0.33% of 330,000 active. AID 588478;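 active means mean of two replicates above 20%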;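 further: 0% = compound-free wells with enzyme and 100% = wells lacking proteasome; stock transfer was 100 nL into about 20 µL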
Target sequence (Q9Y5K5 whole entry, looked up): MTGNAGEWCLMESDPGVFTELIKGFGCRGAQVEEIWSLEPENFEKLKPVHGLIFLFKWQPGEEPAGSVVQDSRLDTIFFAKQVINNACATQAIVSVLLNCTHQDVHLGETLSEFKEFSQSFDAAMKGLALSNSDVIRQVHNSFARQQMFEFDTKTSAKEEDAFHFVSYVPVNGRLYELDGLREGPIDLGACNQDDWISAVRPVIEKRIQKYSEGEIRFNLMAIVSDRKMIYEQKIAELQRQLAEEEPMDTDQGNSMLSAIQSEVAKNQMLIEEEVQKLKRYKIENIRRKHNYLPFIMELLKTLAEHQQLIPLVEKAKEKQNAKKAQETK
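Signal – fluorescence, ex 355 nm, em 460 nm · System – Proteasome-bound UCH37 · Input – 0.15 nM proteasome as dispensed · Timing – 30 min preincubation with enzyme, 25 min cleavage at room temperature · Read-out basis – percent inhibition of cleavage signal versus uninhibited and no-proteasome wells · Medium – Tris-HCl pH 7.4 with ATP-MgCl2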
A1 inh – inhibitors of the anti-apoptotic protein A1, read as caspase activation. 0.066% of 330,000 active. MEF A1-2A-BIM cells, Caspase-Glo 3/7 luminescence, 3 h; percent of clofoctol response, vehicle zero. caspase activation, % (no concentration beside the values);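 active means over half of replicate activation scores above 10%, or exactly half above 10 with the replicate mean above 10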;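 further: wells of about 30 µL received 50 nL stock; many hits fall short of the cut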
T cruzi repl – T. cruzi replication inhibition; inhibition, % (concentration not given with the values); T. cruzi beta-gal in NIH3T3, luminescence, 90 h; 1.4% of 300,000 active; AID 1885;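 active means mean inhibition across valid replicates above about 55%, limit read from the data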;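 further: signal also drops with host cell toxicity which is not excluded here; 0% = plate median of DMSO wells and 100% = zero luminescence signal; higher percent means less beta-gal luminescence so fewer parasites; stock transfer was 50 nL into about 50 µL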
Beta apoptosis – beta cell apoptosis inhibition | INS-1E cytokine-induced death, ATP luminescence, 48 h; percent of positive-control rescue, neutral wells zero | protection from apoptosis, % (concentration not given with the values) | 0.8% of 300,000 active;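 active means all replicates at 75% or more, or half of them and the mean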;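 further: 0% = cytokine-treated negative control wells and 100% = positive control rescue; higher means more ATP so stronger rescue from cytokine killing; wells of about 40 µL received 100 nL stock; the first replicate is given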
Ecoli rRNA inh OD600 – further read-out of Ecoli rRNA inh, marked with its call; OD600 change, %; measured here: OD600 growth;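 optical density of the mix in the first replicate; 0 = DMSO median and -100 = no signal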
Ecoli rRNA inh RFP – further read-out of Ecoli rRNA inh, marked with its call; RFP signal change, %; measured here: RFP humanized mutant strains;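 first replicate; 0 = DMSO median and -100 = no signal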
An asterisk follows results filed as active; i = inactive; / = not tested or not shown; & = joins results of further samples. This is a subset. The share of hits here may be higher or lower than overall.

SMILES	AF4-AF9 inh	E coli growth	FGF22 binding	Ecoli rRNA inh	Ecoli rRNA inh OD600	Ecoli rRNA inh RFP	UCH37 DUB inh	A1 inh	T cruzi repl	Beta apoptosis
CC(=O)c1cnc(SCCN2C(=O)c3ccccc3C2=O)nc1C	/	0.68	/	/	/	/	-1.8	0.4	3	-6
CC(C)Oc1ccccc1/C=N/Nc1ccccc1[N+](=O)[O-]	13	/	i	1	-1	-3.3	/	0.1	30	61
COc1ccc(CCNc2nc(-c3sc(N)nc3C)cs2)cc1OC	/	0.7	/	/	/	/	4.9	0.1	-6	3
O=S(=O)(NC1CCCCC1)c1cccs1	-5.8	0.7	i	3	7	-1.2	3.7	0.4	-6	-7
COc1cc(CNC(C)(C)C)ccc1OCC(=O)NC(C)(C)C	0.5	0.67	i	12	10	-0.7	0.4	0.6	-9	/
COc1ccc(C(=O)CCc2nc3ccccc3s2)cc1	/	0.65	/	/	/	/	4.0	0.2	-7	/
O=C(Cc1ccccc1)N/N=C/c1cccc([N+](=O)[O-])c1	-1.5	/	i	0	8	-4.7	/	-0.1	-10	3
CCn1c(SC(C)C(=O)Nc2ccc(N3CCOCC3)cc2)nnc1C1CC1 (stereo not given)	-2.5	0.7	i	2	7	-1.2	2.1	-0.4	/	2
Cc1ccc(NC(=O)CSCC(=O)N(CCC(C)C)c2c(N)n(Cc3ccccc3)c(=O)[nH]c2=O)cc1	2.7	0.66	i	0	-2	0.6	0.3	/	/	/
FC(F)(F)c1cnc(Oc2ccccc2-c2nnc(-c3ccc(Cl)cc3)o2)c(Cl)c1	/	0.75	/	/	/	/	2.3	-1.4	15	11
C/C=C/c1ccc(OCCCCOc2ccccc2F)c(OC)c1	/	0.74	/	/	/	/	0.2	0.1	3	-3
CC1CCN(c2ccc3c(c2)S(=O)(=O)c2cccc(C(=O)NCc4cccc(F)c4)c2C3=O)CC1	2.2	0.69	i	5	-6	6.4	1.7	-1.5	/	7
CCN(CC)C(=O)Sc1cccc2cccnc12	-34	0.71	/	6	4	-0.8	-3.9	-0.4	-22	-8
O=C(NCC1CCCO1)c1ccc(NC(=O)C2CCCCC2C(=O)O)cc1 (stereo not given)	/	0.74	/	/	/	/	1.1	-0.3	-7	-9
CC1CCN(CC(O)COC2CCC(C(C)(C)C)CC2)CC1 (stereo not given)	/	0.72	/	/	/	/	2.8	0.1	/	-14

Two records drawn at random from the list so far:
SMILES	AF4-AF9 inh	E coli growth	FGF22 binding	Ecoli rRNA inh	Ecoli rRNA inh OD600	Ecoli rRNA inh RFP	UCH37 DUB inh	A1 inh	T cruzi repl	Beta apoptosis
CC1CCN(CC(O)COC2CCC(C(C)(C)C)CC2)CC1 (stereo not given)	/	0.72	/	/	/	/	2.8	0.1	/	-14
COc1ccc(CCNc2nc(-c3sc(N)nc3C)cs2)cc1OC	/	0.7	/	/	/	/	4.9	0.1	-6	3

Entries of single compounds, quoted from the list. Values in the order: AF4-AF9 inh, E coli growth, FGF22 binding, Ecoli rRNA inh, Ecoli rRNA inh OD600, Ecoli rRNA inh RFP, UCH37 DUB inh, A1 inh, T cruzi repl, Beta apoptosis
Shown for CC(=O)c1cnc(SCCN2C(=O)c3ccccc3C2=O)nc1C → /, 0.68, /, /, /, /, -1.8, 0.4, 3, -6
Shown for CCn1c(SC(C)C(=O)Nc2ccc(N3CCOCC3)cc2)nnc1C1CC1 (stereo not given) → -2.5, 0.7, i, 2, 7, -1.2, 2.1, -0.4, /, 2
Shown for COc1ccc(C(=O)CCc2nc3ccccc3s2)cc1 → /, 0.65, /, /, /, /, 4.0, 0.2, -7, /
Shown for C/C=C/c1ccc(OCCCCOc2ccccc2F)c(OC)c1 → /, 0.74, /, /, /, /, 0.2, 0.1, 3, -3
Shown for CC1CCN(CC(O)COC2CCC(C(C)(C)C)CC2)CC1 (stereo not given) → /, 0.72, /, /, /, /, 2.8, 0.1, /, -14

(continued)
SMILES	AF4-AF9 inh	E coli growth	FGF22 binding	Ecoli rRNA inh	Ecoli rRNA inh OD600	Ecoli rRNA inh RFP	UCH37 DUB inh	A1 inh	T cruzi repl	Beta apoptosis
Cc1ccc(S(=O)(=O)N(C)c2ccc(C(=O)N3CCc4ccccc4C3)cc2)cc1	-3.6	0.71	i	-27	-42	-3.7	3.8	0.7	25	-5
C=CCn1c(SCC(=O)Nc2ccc(C)cc2C)nnc1-c1cccnc1	/	0.73	/	/	/	/	-0.3	0.1	-17	-12
COc1ccc(N2CCN(C(=O)CCNS(=O)(=O)c3ccc4c(c3)CCC(=O)N4)CC2)cc1	/	0.67	/	/	/	/	0.5	0.2	/	7
N#Cc1c(NC(NC(=O)c2ccco2)C(=O)c2ccccc2)sc2c1CCCC2 (stereo not given)	/	0.68	/	/	/	/	2.2	-0.6	-11	0
CC1=C/C(=C(/c2cc(C)c(O)c(Br)c2)c2ccccc2S(=O)(=O)O)C=C(Br)C1=O	47*	1.3&0.93	/	-12	54	6.9	8.1&3.0	-2.0	-9	40
O=C(CCc1nc2ccccc2c(=O)[nH]1)OCC(=O)c1ccc(C2CCCCC2)cc1	/	0.67	/	/	/	/	0.7	0.6	-10	-4
CC(C)c1cccc(C(C)C)c1NC(=O)CCl	1.2	0.67	i	14	6	2.5	3.5	0.7	18	0
CC(=O)Nc1ccc(NS(=O)(=O)c2ccccc2)c2ccccc12	6.3	0.72	i	8	3	0.8	2.3	1.9	-7	-1
CCCn1c(=O)c2c(c3ccccc31)OCC(=O)N2	/	0.73	/	/	/	/	3.1	0.9	/	-5
O=C(O)C1CCCCC1C(=O)NCc1ccncc1 (stereo not given)	/	0.71	/	/	/	/	0.3	-0.5	-9	-6
Cc1ccccc1C(=O)NC1CCSC1=O (stereo not given)	-5.1	0.66	i	9	2	-3.0	1.1	-0.2	-5	-1
CCc1ccccc1NC(=O)Cn1nnc(-c2cccs2)n1	/	0.66	/	/	/	/	0.2	1.0	8	/
Cc1cc(C)c(C#N)c(SCC(=O)Nc2ccc3c(c2)OCO3)n1	/	0.73	/	/	/	/	0.7	0.6	-7	-3
CC(=O)N1c2ccc(S(=O)(=O)NCC3CCC(C(=O)N4CCC(C)CC4)CC3)cc2CC1C (stereo not given)	-0.4	0.64	i	-3	-4	-2.9	4.9	-0.9	7	6
O=C(NC1=NCCS1)c1cccc(N2C(=O)c3ccccc3C2=O)c1	-0.5	0.72	i	-4	-17	3.5	3.1	-0.9	-11	-8
COC(=O)c1ccc(COc2ccccc2/C=C(\C#N)C(=O)NC(C)C)cc1	-1.7	/	i	-1	10	8.4	5.2	0.5	-8	-4
COc1ccc(C(C)N2CC34C=CC(O3)C(C(=O)O)C4C2=O)cc1 (stereo not given)	/	0.69	/	/	/	/	0.1	0.7	-1	-8
COCC(=O)NC1CCN(S(=O)(=O)c2ccc(C(=O)O)cc2)CC1	/	0.7	/	/	/	/	2.3	-0.1	-3	-4
NS(=O)(=O)c1cc(C(=O)OCC(=O)c2ccccc2)c(Cl)cc1Cl	1.2	0.6	i	6	8	0.6	0.5	-0.1	-1	0
COc1ccc(CCNC(=O)COc2cc(=O)n(C)c3ccccc23)cc1OC	-0.5	0.69	i	-6	-6	-1.5	1.2	1.4	-8	-2
O=C(Nc1cc(-c2ccccc2)cs1)c1ccco1	-34	0.6	i	-12	-30	-4.9	2.0	/	/	/
COCCCN(C(=S)Nc1cc(Cl)cc(Cl)c1)C(C)c1ccncc1 (stereo not given)	-5.3	0.65	i	-49	-78	-30	6.2	-0.5	-18	-10
Cc1cccc(C)c1NC(=O)NC1(C(=O)N2CCOCC2)CCCCC1	-2.2	0.69	i	11	10	-17	4.2	1.2	10	-1
CCn1c(C(=O)N2CCCC(C(=O)NCCc3ccc(C)cc3)C2)cc2sccc21 (stereo not given)	/	0.67	/	/	/	/	4.4	-0.1	/	-1
CS(=O)(=O)N(CCc1ccccc1)CC(=O)NCc1ccco1	/	0.71	/	/	/	/	-1.5	1.5	-1	4
O=C(Nc1nnc(SCc2c(Cl)cccc2Cl)s1)c1cccc([N+](=O)[O-])c1	1.9	0.71	i	1	-3	-1.3	2.2	-0.3	14	10
Oc1ccccc1-c1nnc2n1CCCCC2	-8.0	0.69	i	8	11	-1.0	3.8	0.1	-6	-2
COCCN(C(=O)c1ccc(C)o1)c1c(N)n(CC(C)C)c(=O)[nH]c1=O	0.5	0.68	i	3	9	-1.5	1.8	0.0	/	-5
COc1ccc(N2CCN(C(=O)c3cn(C)c4ccc(S(=O)(=O)N5CCOCC5)cc4c3=O)CC2)cc1	0.7	0.72	i	3	9	-1.1	3.3	-0.3	-11	-1
CC1CC1C(=O)Nc1nc(-c2ccc(Cl)s2)cs1 (stereo not given)	2.3	0.71	i	-36	-55	1.5	3.6	-0.1	41	21
CC(=O)NC(C(=O)c1ccccc1)N1CCCCC1 (stereo not given)	0.3	0.71	i	-5	-5	3.1	-0.3	0.4	-8	-2
O=C(O)CCCSc1nccn1-c1ccccc1	-0.9	0.69	i	11	5	0.4	2.7	0.1	-6	-4
CN1CCN(S(=O)(=O)c2ccc(Br)c3ccccc23)CC1	3.8	0.66	i	-2	-6	1.3	3.6	1.0	7	0
CC1CCN(C(=S)NC(=O)c2ccccc2Br)CC1	-4.8	0.71	i	6	5	-0.1	4.0	0.4	-11	2
COc1ccccc1CNC(=O)COC(=O)CNS(=O)(=O)c1ccc(NC(C)=O)cc1	0.2	0.71	i	2	10	1.3	-1.3	0.3	/	-3
Cn1cc(S(=O)(=O)N2CCOCC2)cc1C(=O)O	-0.8	0.67	i	13	11	-1.1	-0.7	0.7	/	1
CC(C)COC(=O)N1CC(O)CC1C(=O)O (stereo not given)	/	0.75	/	/	/	/	-0.6	1.5	-1	0
O=S(=O)(NCc1cccnc1)c1ccc(Cl)c(Cl)c1	/	0.75	/	-2	-7	-1.4	-3.7	-0.3	8	5
CCOC(=O)C1=C(COc2ccccc2)NC(=O)NC1c1ccc2ccccc2c1 (stereo not given)	1.0	0.67	i	4	2	-2.8	4.8	0.4	23	21
NC(=O)c1cc([N+](=O)[O-])ccc1NCc1ccc(N)cc1	-2.4	/	i	0	13	-3.8	/	1.6	/	7
O=C(CCn1c(=O)sc2ccccc21)NC1=NCCS1	0.1	0.62	i	5	-3	-4.1	1.1	1.0	-37	-4
Cc1ccc(N2CC(C(=O)NC3CCC(C)CC3)CC2=O)cc1 (stereo not given)	-0.9	0.74	i	8	13	-1.7	-0.9	0.1	-8	3
O=C(CSC(=S)N1CCOCC1)Nc1nc(-c2ccccc2)c(-c2ccccc2)o1	/	0.74	/	/	/	/	2.2	-0.6	-9	0
Cc1nc2ccccc2c(C)c1CC(=O)OC(C)C(=O)NC1(C#N)CCCCC1 (stereo not given)	-0.7	0.64	i	7	3	2.7	4.4	1.1	-1	-2
COc1ccc(C)cc1NC(=O)c1ccc(NS(=O)(=O)c2cccs2)cc1	7.9	0.63	i	-4	-27	3.5	3.8	0.6	2	4
COCCSc1ccccc1C(=O)NCCc1ccccc1	-6.4	0.63	/	9	4	-0.8	3.2	1.3	10	-3
O=C(N/N=C/c1cc2c(cc1Br)OCO2)C1COc2ccccc2O1 (stereo not given)	7.8	/	i	-23	-28	3.8	/	-1.0	4	-3
O=C(CN1CCN(Cc2cccc(F)c2)CC1)Nc1ccccc1F	-0.6	0.66	i	14	16	0.3	1.9	0.2	41	/
CCOC(=O)CN1C(=N)N(c2nc(NC(C)C)nc(NC(C)C)n2)CC1=O	/	0.67	/	/	/	/	4.7	0.1	2	-4
